Screening data as filed in PubChem.
TSHR ag: qHTS Assay for Agonists of the Thyroid Stimulating Hormone Receptor; HEK293-CNG-TSHR cells (CNG channel as cAMP sensor), membrane potential dye, cAMP; Potency, µM (titrated, usually from 57.1 µM), for inactives: at the top dose activation, most hits filed as activators; actives 0.48% (n = 73,000); active = well fitted activation curve of enough size with the parental cells flat; inconclusive = any curve in the parental cells; inactive = parental cells flat and receptor cells flat or falling; further: potency means the concentration at half of the fitted maximal effect; % of control where 0% means no effect; weak receptor curves with flat parental cells got no call and are not listed
Target sequence (P16473 whole entry, looked up): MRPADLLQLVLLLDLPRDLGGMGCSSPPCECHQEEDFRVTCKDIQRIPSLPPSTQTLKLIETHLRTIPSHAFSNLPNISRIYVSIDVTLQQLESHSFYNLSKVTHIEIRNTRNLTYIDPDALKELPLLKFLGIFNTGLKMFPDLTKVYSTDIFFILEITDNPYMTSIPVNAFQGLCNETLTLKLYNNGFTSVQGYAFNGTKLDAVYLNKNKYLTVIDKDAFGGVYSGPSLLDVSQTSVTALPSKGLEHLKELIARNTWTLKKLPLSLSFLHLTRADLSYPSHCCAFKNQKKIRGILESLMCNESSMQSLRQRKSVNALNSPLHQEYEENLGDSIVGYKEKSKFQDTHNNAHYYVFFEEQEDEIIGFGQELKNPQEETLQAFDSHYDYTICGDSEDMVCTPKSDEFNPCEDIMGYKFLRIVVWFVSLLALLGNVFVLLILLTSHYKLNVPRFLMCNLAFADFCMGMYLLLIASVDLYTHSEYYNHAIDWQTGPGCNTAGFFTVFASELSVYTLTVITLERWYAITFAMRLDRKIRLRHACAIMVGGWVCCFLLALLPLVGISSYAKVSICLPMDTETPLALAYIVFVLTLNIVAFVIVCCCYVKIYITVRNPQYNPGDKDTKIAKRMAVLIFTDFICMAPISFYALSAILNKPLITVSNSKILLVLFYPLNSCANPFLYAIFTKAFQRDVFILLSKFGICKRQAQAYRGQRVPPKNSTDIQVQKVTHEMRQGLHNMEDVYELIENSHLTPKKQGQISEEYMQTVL
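HEK 293 cells stably expressing TSHR and a cAMP-gated CNG channel; parental CNG-only cells as counterscreen. Cells preloaded 60 min with membrane potential dye plus 100 uM RO 20-1724, then compound 30 min; fluorescence read at 590 nm.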
A647 fluor: qHTS Assay for Spectroscopic Profiling in A647 Spectral Region; Compound fluorescence, A647 channel (570/671 nm), Tris buffer; AID 592, 2007; 59,000 tested, under 10 active; max dye-equivalent concentration, M; active means above 1 µM dye equivalent; inconclusive means 0.1 to 1 µM; inactive means 0.1 µM or less;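 further: values scaled relative to a standard on each plate; highest value over a series up to 38 µM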
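Each compound's intrinsic fluorescence at 570 nm excitation and 671 nm emission is measured across its concentration series in 100 mM Tris, pH 8.0, after 15 min at room temperature, and reported relative to an A647 curve.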
A488 autofl: qHTS Assay for Spectroscopic Profiling in A488 Spectral Region; compound autofluorescence, A488 spectral region, dye equivalency; stronger effect = higher value; max dye equivalency, M; AID 591, 2007; actives 0.1% (n = 59,000); active = above 10 nM dye equivalent; inconclusive = 1 to 10 nM; inactive = 1 nM or less; about half of its hits are not listed in these tables;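 further: highest value over a series up to 38 µM; compound alone in buffer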
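Intrinsic compound fluorescence is measured in 100 mM Tris buffer at pH 8.0 following 15 min incubation at room temperature. Intensities at 480 nm excitation/540 nm emission are calibrated to an on-plate A488 concentration series, giving dye-equivalent concentrations.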
Resorufin fluor: qHTS Assay for Spectroscopic Profiling in Resorufin Spectral Region; actives 0.04% (n = 59,000); max dye-equivalent concentration, M; Compound fluorescence, resorufin region 547/598 nm, buffer; stronger effect = higher value; AID 588, 2007; active = above 10 nM dye equivalent; inconclusive = 1 to 10 nM; inactive = 1 nM or less; a few of its hits are not listed in these tables; further: highest value over a series up to 38 µM
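Intrinsic fluorescence profiled in the resorufin window (ex 547 nm, em 598 nm) after 15 min at room temperature in pH 8.0 Tris buffer (100 mM); responses normalized against a six-point resorufin standard series as dye-equivalent concentration.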
AID923: qHTS Assay for Allosteric/Competitive Inhibitors of Caspase-1: Spectroscopic Profiling in AFC Spectral Region. actives 1.1% (n = 75,000). Potency, µM (titrated, usually from 57.5 µM), for inactives: at the top dose fluorescence increase, hits mostly activators. compound fluorescence, AFC spectral region (405/520 nm); almost no hit is shown here; active means well fitted activation curve with a large enough effect; inconclusive means small, poorly fitted or top-dose-only effect;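 further: potency means the concentration at half of the fitted maximal effect; 0% is about no effect; scaled to a free AFC standard on each plate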
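Titrations up to 57 uM read every 20 sec for 3 min (405/520 nm) with 50 nM caspase 1 and 5 uM Ac-WEHD-AFC, pH 7.5 HEPES buffer. Fluorescence-vs-time intercept gave baseline, scaled against on-plate AFC standard.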
The depositor's hits bear a star; i = inactive; ? = inconclusive; . = no result given; & = joins results of further samples; [ ] = dose if it differs, or a comment. These rows are one share of the data; the hit share may differ from the screen's.

SMILES	TSHR ag	A647 fluor	A488 autofl	Resorufin fluor	AID923
CSc1ccccc1NC(=O)c1cccs1	6.4%	4.2e-09	i	i	0.6%
COc1ncnc2c1N[C@@](C)(O)c1c(F)c(F)c(F)c(F)c1S2	-10.2%	1e-09	i	i	4.3%
Cc1c(C(=O)O)oc2c3c(ccc12)OCCO3	14.9%	.	.	.	0.2%
CC(=O)OCN(C#N)c1nc(N(C)C)nc(N(C)C)n1	6.5%	2.87e-08	i	i	-2.0%
CCCS(=O)(=O)N1CCN(C(=O)COc2ccc(-c3ccccc3)cc2)CC1	6.3%	.	.	.	1.9%
O=C(Cc1ccccc1)Nc1ccc(NC(=O)c2ccco2)nc1	-2.2%	1e-09	i	i	2.4%
CC1(C)c2ssc(=S)c2-c2ccccc2N1C(=O)c1ccco1	-14.6%	1e-09	i	i	0.9%
COc1cc(C(C#N)N2CCCCC2)ccc1O (centres undefined)	5.3%	.	.	.	-0.2%
Cc1ccccc1OCC(=O)Nc1ccccc1CO	7.0%	.	.	.	-0.1%
CC(C)N(CCNC(=O)c1ccc(-n2c(=O)c(=O)[nH]c3ccccc32)cc1)C(C)C	3.6%	.	.	.	3.0%
O=C(NCc1ccccn1)[C@@H]1C[C@H]1[C@@H](NP(=O)(c1ccccc1)c1ccccc1)c1ccccc1	2.1%	.	.	.	1.5%
Cc1cc2cc(CN(C(=O)C3CC3)C3CCCC3)c3nnnn3c2cc1C	?	3.61e-08	i	i	1.1%
O=C(O)c1ccc(OC(F)(F)C(F)C(F)(F)F)cc1 (centres undefined)	.	1e-09	i	i	0.3%
N#Cc1c2c(c(N3CCN(c4ccccn4)CC3)n3c1nc1ccccc13)CCC2	-0.4%	.	.	.	7.7%
O=C(NCCCNCc1ccccc1)c1ccncc1	-1.9%	1e-09	i	i	0.5%
COC(=O)c1ccc(C(/C=C/[C@@H](C)C(=O)N(C)C)NC(=O)OCc2ccccc2)cc1 (some centres undefined)	17.5%	.	.	.	-1.8%
CCc1nc(Nc2ccncc2)c2oc3ccccc3c2n1	.	8.1e-09	i	i	-0.5%
COCCN(C(=O)Nc1ccccc1)c1ccccc1C	.	5.9e-09	i	i	.
Cc1cccc(N(C)c2cc(C)nc3nc(C)nn23)c1	13.7%	.	.	.	-0.7%
Cn1cccc1Cc1nnc(SCC(=O)N2CCCCCC2)n1-c1ccc(F)cc1	4.3%	.	.	.	-1.4%
CCc1ccc2[nH]c(=O)c(CN(CCN3CCOCC3)C(=O)Nc3ccccc3F)cc2c1	14.7%	1.65e-08	i	i	0.4%
CC(=O)Nc1sc2c(c1C#N)CC(C)(C)NC2(C)C	2.2%	1e-09	i	i	-1.3%
CCCc1cc(=O)[nH]c(SCC(=O)N(CC(C)C)C2CCS(=O)(=O)C2)n1 (centres undefined)	-10.1%	1e-09	i	i	-0.9%
CCn1c(=O)c(-[n+]2ccccc2)c(O)c2ccccc21	-2.4%	2.7e-09	i	i	-0.7%
Cc1ccc2cc(C(c3nnnn3CC3CCCO3)N3CCCC4(CCCCC4)C3)c(=O)[nH]c2c1 (centres undefined)	5.4%	2.38e-08	i	i	7.9%
C=CCn1c(=O)n(CC=C)c(=O)n(CC=C)c1=O	3.5%	.	.	.	1.8%
N#Cc1ccc(CN2CC[C@@]3(CCCN(C(=O)c4cnccn4)C3)C2)cc1	3.5%	1.89e-08	i	i	1.4%
CCn1cc(C(=O)N2CC(C)CC(C)C2)c(=O)c2cc(S(=O)(=O)N(C)C)ccc21 (centres undefined)	?	.	.	.	-0.9%
Cc1cccc(-n2c(SCC(=O)N3CCCC3)nnc2-c2ccccn2)c1C	0.9%	1e-09	i	i	-0.5%
COC(=O)c1ccc(Cn2c(CN3CCOCC3)nc3ccccc3c2=O)o1	15.7%	2.04e-08	i	i	-0.3%
CCCOC(=O)c1ccc2c(c1)C(=O)N(c1ccccc1)C2=O	-9.2%	1e-09	i	i	-1.7%
CCCc1cc(N2CCCC(C(=O)NCC)C2)n2ncnc2n1 (centres undefined)	-2.9%	3e-09	i	i	-1.1%
Cc1cc(Nc2ccc(F)c(Cl)c2)n2nc(C)nc2n1	8.6%	.	.	.	3.1%
O=C(CSc1nnc(CNC(=O)c2ccccc2F)o1)Nc1ccc2c(c1)OCCO2	4.4%[11.4 µM]	6.6e-09	i	i	1.2%
COc1cccc(CNC(=O)C2CCN(S(=O)(=O)N3CCCCC3)CC2)c1	-9.7%	1.3e-09	i	i	0.8%
COCCCNC(=O)c1ccc(CS(=O)(=O)c2ccc(Br)cc2)o1	3.8%	.	.	.	1.3%
CC(C)CC1(C)NC(=O)N(CCN2C(=O)c3ccccc3C2=O)C1=O (centres undefined)	-3.8%	3.45e-08	i	i	-3.7%
COc1cc2[nH]c(=O)n(CCC(=O)NCc3cccnc3)c(=O)c2cc1OC	-2.4%[11.4 µM]	6.8e-09	i	i	-1.1%
CC(C)OCCCNC(=O)C1CC(=O)N(C2CCCCCCC2)C1 (centres undefined)	4.0%	2.7e-09	i	i	0.9%
O=C(NCc1ccco1)c1cc(-c2ccc(F)cc2)on1	5.5%	2.36e-08	i	i	0.3%
O=C(NC(C(=O)c1ccccc1)N1CCOCC1)c1cccs1 (centres undefined)	-0.8%	1.28e-08	i	i	0.6%
CC(=O)c1ccc(OCC(O)CN2CCN(Cc3ccccc3)CC2)cc1 (centres undefined)	-3.7%	.	.	.	-3.4%
C[C@@H]1CCCN(CP(=O)(c2ccccc2)c2ccccc2)C1	11.1%[11.4 µM]	5.2e-08	i	i	1.1%[11.5 µM]
CCc1nc(CNC(=O)c2cc(OC)c(OC)c(OC)c2)no1	-3.0%	4.41e-08	i	i	-0.4%
COc1ccc(C(=O)O)cc1S(=O)(=O)NCCCN1CCCC1=O	6.8%	3e-09	i	i	-0.2%
CCCc1nc(SCC(=O)NCc2ccc3c(c2)OCO3)c2c(=O)n(C)c(=O)n(C)c2n1	2.8%	.	.	.	-0.1%
CCc1ccccc1S(=O)(=O)Cc1ccc(C(=O)N2CCN(c3ccccc3OC)CC2)o1	9.1%	.	.	.	2.7%
Cc1cccc(NC(=O)c2cc3ccccc3c(=O)o2)n1	-9.3%	1e-09	i	i	1.3%
Cc1ccc(CNC(=O)[C@H](C)[C@@H]2C[C@@]2(C)[C@@H](NC(=O)OCc2ccccc2)c2ccccc2)o1	?	.	.	.	1.0%
COc1ccc2[nH]c3nc(SC(C)C)nnc3c2c1	7.3%	1e-09	i	i	0.8%

Other entries follow.
SMILES	TSHR ag	A647 fluor	A488 autofl	Resorufin fluor	AID923
CCOc1ccc(OCC)c(S(=O)(=O)NCCCN2CCOCC2)c1	10.1%	.	.	.	4.8%
O=C1CC(c2ccco2)c2ccc3ccccc3c2N1 (centres undefined)	13.9%	3.48e-08	i	i	1.4%
O=C(Nc1ccc(Cl)cc1C(=O)NCCN1CCOCC1)c1ccco1	8.0%	1.2e-09	i	i	0.1%
CCn1nccc1C(=O)Nc1ccc(Cl)cc1Cl	22.7%	1e-09	i	i	2.6%
CCOC(=O)c1cccc(NC(=O)C(NS(=O)(=O)c2ccc3c(c2)CCN3C(C)=O)C(C)C)c1 (centres undefined)	8.9%	1.1e-09	i	i	0.3%
O=C(CCN1C(=O)COc2ccccc21)NCc1cccnc1	-3.3%	1e-09	i	i	-1.2%
O=C(c1cccc(F)c1)N1CCN(c2cccc(Cl)c2)CC1	8.7%	3.5e-09	i	i	-1.3%
CN(C)S(=O)(=O)c1ccc(S(=O)(=O)N(Cc2ccco2)Cc2ccccc2Cl)cc1	?	4.26e-08	i	i	1.2%
Oc1cc2c(cc1O)[C@H](c1ccccc1)CNCC2	4.3%&7.8%	1e-09	i	i	-2.3%&2.0%
CC(NC(=O)OC(C)(C)C)C(=O)Oc1ccc2ccc(=O)oc2c1 (centres undefined)	.	1.88e-08	i	i	.

Results in A488 autofl, for some of the entries so far:
Molecule,A488 autofl
O=C(c1cccc(F)c1)N1CCN(c2cccc(Cl)c2)CC1,i
CN(C)S(=O)(=O)c1ccc(S(=O)(=O)N(Cc2ccco2)Cc2ccccc2Cl)cc1,i
Oc1cc2c(cc1O)[C@H](c1ccccc1)CNCC2,i

The results go on.
SMILES	TSHR ag	A647 fluor	A488 autofl	Resorufin fluor	AID923
CC1(C)C(=O)C2(CCCCC2)C(=O)OC1c1ccc(O)cc1 (centres undefined)	0.6%	1e-09	i	i	2.1%
COC(=O)c1sc(=S)n(-c2cc(F)ccc2F)c1N	?	6.9e-09	i	i	2.1%
COc1ccc(-c2noc(Cc3ccc(Cl)cc3)n2)cc1OC	25.1µM*	.	.	.	0.0%
CCOc1ccc(Nc2nc(Cc3nnc(SCC(=O)NCc4ccco4)n3CC)cs2)cc1	1.8%	1.15e-08	i	i	1.2%
Cn1nc(C(=O)NCc2ccccc2)c2ccccc2c1=O	7.4%	1e-09	i	i	1.3%
O=C1c2ccccc2CCC1C(O)c1ccccn1 (centres undefined)	-1.2%[11.4 µM]	1e-09	i	i	-1.0%
CCOC(=O)N1CCN(c2c(N3CC=C(c4ccccc4)CC3)c(=O)c2=O)CC1	3.2%	.	.	.	2.2%
CC(C)N(Cc1nc(-c2ccccc2)no1)C(=O)c1ccc(Br)o1	?	1e-09	i	i	-0.7%
O=C(NCc1ccncc1)C1CCCN(S(=O)(=O)Cc2ccccc2)C1 (centres undefined)	3.7%	1e-09	i	i	2.3%
COCCOC(=O)c1c(C)oc2ccc(OC(=O)COc3c(F)c(F)c(F)c(F)c3F)cc12	.	8.4e-08	i	i	.

5 compounds out of the list above, arranged by the number in AID923, falling:
molecule | A647 fluor | A488 autofl | AID923
CCOC(=O)N1CCN(c2c(N3CC=C(c4ccccc4)CC3)c(=O)c2=O)CC1 | . | . | 2.2%
COC(=O)c1sc(=S)n(-c2cc(F)ccc2F)c1N | 6.9e-09 | i | 2.1%
Cn1nc(C(=O)NCc2ccccc2)c2ccccc2c1=O | 1e-09 | i | 1.3%
CC(C)N(Cc1nc(-c2ccccc2)no1)C(=O)c1ccc(Br)o1 | 1e-09 | i | -0.7%
O=C1c2ccccc2CCC1C(O)c1ccccn1 (centres undefined) | 1e-09 | i | -1.0%

(more compounds)
SMILES	TSHR ag	A647 fluor	A488 autofl	Resorufin fluor	AID923
COc1ccccc1CNc1ccnc(-c2ccccc2CN(C)C)n1	?	2.9e-09	i	i	5.3%
COc1ccc(CNC2CCCCC2)cc1	16.8%	1.41e-08	i	i	-0.9%
O=C(CSc1ccc2nnc(-c3ccccc3)n2n1)N1CCCCC1	7.0%	3.9e-09	i	i	-0.6%
Cc1ccc2cc(CN(Cc3ccco3)C(=O)c3cccs3)c(=O)[nH]c2c1	?	4.22e-08	i	i	1.2%
Cc1nc(NCc2ccccc2)[nH]c(=O)c1CCC(C)C	?	1.65e-08	i	i	-0.3%
Cc1ccc(C2CC(=O)c3cnc(NC(=O)c4ccco4)nc3C2)cc1 (centres undefined)	18.2%	1.32e-08	i	i	0.2%
N=c1n(Cc2ccccc2)c2ccccc2n1CC(O)c1ccco1 (centres undefined)	4.3%	2.13e-08	i	i	0.5%
O=C(NCCc1ccccc1)C1CCN(S(=O)(=O)c2ccc(-n3cnnn3)cc2)CC1	-4.5%	3.06e-08	i	i	1.5%
O=C(NC1CCCCC1)C1CCCN(c2nnnn2-c2ccccc2)C1 (centres undefined)	2.9%	2.3e-09	i	i	0.0%
CCn1c(COc2ccc(Cl)c(C)c2)nnc1SCC(=O)N1CCCC1	1.5%[11.4 µM]	1e-09	i	i	-0.8%
C=CCOC(=O)C(C(C)=O)C(NC(=O)OC)c1cccc(F)c1 (centres undefined)	25.1%[11.4 µM]	.	.	.	-2.6%[11.5 µM]
Cc1cc(C)nc(NC(=O)NS(=O)(=O)Nc2ccc(Br)cn2)n1	-1.0%	3.1e-09	i	i	0.3%
